TRPML1 blocker: blocks the human TRPML1 channel; Q9GZU1; TRPML1-inducible cells, Ca2+ dye fluorescence, FDSS; active compounds read low; inhibition of EC80 agonist-evoked calcium signal; activity change, negative = inhibition, % (test concentration not listed); 0.02% of 390,000 active; AID 624415; in the data active means activity change below about -50%; inconclusive means about -30% to -50%; inactive means above about -30%;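 also: stimulus is agonist 54-4 at its EC80 concentration; % is scaled to controls: 0 for no effect and ±100 for the full control effect; compound concentration not given in the record; the text of the record puts the active cut at -80%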
Target sequence (Q9GZU1 whole entry, looked up): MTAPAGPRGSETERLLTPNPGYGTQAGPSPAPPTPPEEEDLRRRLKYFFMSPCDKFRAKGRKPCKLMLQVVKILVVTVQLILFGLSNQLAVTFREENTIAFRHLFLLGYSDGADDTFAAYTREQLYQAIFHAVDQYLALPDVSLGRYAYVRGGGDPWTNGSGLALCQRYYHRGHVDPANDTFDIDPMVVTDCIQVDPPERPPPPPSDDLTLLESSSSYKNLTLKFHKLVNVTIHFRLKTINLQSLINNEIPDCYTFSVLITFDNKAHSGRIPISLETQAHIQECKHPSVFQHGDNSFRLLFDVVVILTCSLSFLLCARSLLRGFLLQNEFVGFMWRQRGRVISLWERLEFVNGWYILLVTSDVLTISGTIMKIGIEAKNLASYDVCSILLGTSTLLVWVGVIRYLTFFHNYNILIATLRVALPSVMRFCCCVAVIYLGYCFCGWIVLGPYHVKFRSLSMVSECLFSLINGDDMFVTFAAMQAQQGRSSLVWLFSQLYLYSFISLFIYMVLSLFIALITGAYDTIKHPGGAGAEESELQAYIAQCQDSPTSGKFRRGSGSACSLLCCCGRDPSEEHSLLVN
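TRPML1-DL cells, Tet-induced overnight (~16 h, 37 °C) at 1,500 cells/well, were loaded with Ca8 no-wash dye plus quencher for 45-90 min at room temperature. Compounds were pinned during FDSS kinetic reading; agonist 54-4 at EC80 (4 uM final) then added.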
Menin MLL FP FL: displaces fluorescein MLL peptide from human menin. FP activity change, % at 61.4 µM. Fluorescence polarization, fluorescein-MLL peptide displacement from menin. AID 1766. 290,000 tested, under 10 active; inconclusive = falling polarisation curve, or a change in total fluorescence; inactive = total fluorescence flat and polarisation flat or rising; no compound was filed as active; the % refers to the polarisation; negative = inhibition;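 also: % of control where 0% means no effect; inhibitors lower the polarisation; unlabelled MLL peptide was the positive control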
TRPV1 potentiator: potentiators of human vanilloid receptor 1 (TRPV1); Q8NER1; TRPV1-expressing cells, Fluo-8 calcium influx, capsaicin EC20 potentiation; host cell line not named in the record; control for the full effect not named in the record; potentiation, % at 8.33 µM; 0.02% of 320,000 active; AID 540277; active means potentiation above 80%; inconclusive means 30% to 80%; inactive means below 30%; also: 0% is about no effect
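Cells expressing TRPV1 were dye-loaded with Fluo-8 and read kinetically: 10 s baseline, 3 min after compound (agonist portion), then 2 min after EC20 capsaicin (allosteric enhancer portion). Calcium-bound dye fluorescence at 480/520 nm.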
Sfp inh: inhibitors of Bacillus subtilis Sfp phosphopantetheinyl transferase; Q9F4F7; Biochemical Sfp PPTase activity, qHTS; Potency, µM, inactives show max response, negative = inhibition, most hits filed as inhibitors; 3.5% of 310,000 active; active = well fitted inhibition curve with a large enough effect; inconclusive = small, poorly fitted or top-dose-only effect, or another doubt; inactive = no such curve, though single readings can be large or run the other way;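 also: the enzyme is Sfp with the accession as filed and its product quenches rhodamine fluorescence; potency is read from the fitted curve at half-maximal effect; 0% = enzyme reaction without inhibitor and -100% = no enzyme wells; top concentration of the series not given in the record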
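With Hepes-Na pH 7.6 buffer containing 10 mM MgCl2, Sfp (15 nM) modified BHQ-2-YbbR (12.5 uM) using rhodamine-CoA (5 uM). Two reads 30 minutes apart at 525/598 nm yielded each well's rate.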
ClpP mod: qHTS Assay for Activators of ClpP | ATP-dependent Clp protease proteolytic subunit (Bacillus subtilis (strain 168)), P80244 | purified B. subtilis ClpP, FRET peptide cleavage, 20 min | 1.9% of 340,000 active | Potency, µM (highest dose often 57.5 µM), for the others: at the top dose activity change, negative = active; active = well fitted falling curve with a large enough effect; inconclusive = small, poorly fitted or top-dose-only effect; inactive = no such curve, though single readings can be large or run the other way; also: potency is read from the fitted curve at half-maximal effect; the source files actives as falling curves though it sought activators and does not explain the sign; nearly all actives have a fitted effect of over 65% in size; many hits overshoot -100%
Target sequence (P80244 whole entry, looked up): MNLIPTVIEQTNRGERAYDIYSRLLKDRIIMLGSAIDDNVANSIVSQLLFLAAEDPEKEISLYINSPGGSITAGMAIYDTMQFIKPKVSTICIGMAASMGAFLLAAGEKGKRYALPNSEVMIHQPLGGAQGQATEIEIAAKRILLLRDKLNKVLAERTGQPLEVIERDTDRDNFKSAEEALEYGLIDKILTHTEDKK
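FRET quenching reversal measured ClpP activation: 10 microg/mL B. subtilis ClpP at pH 8 with the FRET-FV decapeptide, read at 430 nm after 320 nm excitation. The 20-min minus 0-min signal was scaled between DMSO/no-enzyme wells and ADEP (5.8 microM final).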
TRPML1 ag: human mucolipin-1 channel agonism; 0.12% of 410,000 active; TRPML1-expressing cells, Ca2+ dye fluorescence, FDSS; host cell line not named in the record; reference of the full effect not given here; activation, % (concentration not given with the values); Q9GZU1; AID 624414; in the data active = activation above about 50%; inconclusive = about 30% to 50%; inactive = below about 30%; also: 0% is about no effect; the text of the record puts the active cut at 80%
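Cells: TRPML1-DL, 1X Tet inducer, ~16 h at 37 degrees C/5% CO2. Dye: ABD Ca8 no-wash + quencher, 45-90 min RT. Read: 10 s baseline, compound add, 110 s agonist phase; 54-4 EC80 (4uM final), 110 s antagonist phase.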
PINK1 modulator: PINK1 expression modulation. 0.2% of 410,000 active. Potency, µM (series often up to 76.6 µM), inactives show at the top dose activation (PINK1 increase), actives largely listed as activators. PINK1 immunofluorescence, high-content cytometry, 24 h. AID 624263; active = well fitted activation curve with a large enough effect; inconclusive = small, poorly fitted or top-dose-only effect; inactive = flat fitted curve, though single readings scatter; cell line not stated here;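 also: potency is read from the fitted curve at half-maximal effect; % of control where 0% means no effect; nearly all actives have a fitted effect of over 65% in size; a mitochondrial uncoupler was the plate control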
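Decision-based qHTS: stable cells, 24 h exposure to five compound concentrations, CCCP as control. Fixed cells stained for PINK1 plus nuclear, mitochondrial and cell markers, cytometer read.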
* hit, by the source's call; ? = inconclusive; nt = not tested or not shown; & = joins results of further samples.

SMILES	TRPML1 blocker	Menin MLL FP FL	TRPV1 potentiator	Sfp inh	ClpP mod	TRPML1 ag	PINK1 modulator
COc1cccc(CN(C(=O)c2ccco2)C(C(=O)NC2CCCC2)c2cccnc2)c1 (stereo not given)	-7	4.6	-2	24%	-4.8%	-1.5	-0.9%
COc1ccc(C(=O)NNC(=S)NC(=O)c2ccc(F)cc2)cc1Br	-15	nt	nt	nt	0.0%	0.5	1.3%
NC(=O)C1CCN(C(=O)c2ccc3c(c2)S(=O)(=O)c2ccccc2C3=O)CC1	-6	4.9	2	14%	nt	-0.3	-1.5%
CCCn1c(=O)c2ccccc2n2c(SCN3C(=O)c4ccccc4C3=O)nnc12	nt	6.6	3	9%	nt	nt	nt
Cc1nn(C(=O)c2ccco2)c(C)c1Br	0	-0.6	6	10%	1.6%	-1.8	-0.7%
CCC[C@H]1COCCS(=O)(=O)N1Cc1ccccc1	-7	0.1	19	11%	-1.6%&1.5%	-0.4&-1.2	1.2%
CCc1ccc(NC(=O)c2ccccc2SC)cc1	-17	4.0	13	11%	-0.5%	0.3	5.1%
CCCC(=O)Nc1nn(C)c2nc3cc(C)ccc3cc12	nt	0.2	9	8%	nt	nt	nt
CCCCN1C(=O)C(CC(=O)NCC2CCCCC2)CC(C(=O)N(C)C)=C1C (stereo not given)	36	nt	nt	nt	0.8%	-0.5	-0.3%
CCn1nc(C(=O)Nc2ccc3c(c2)OCCO3)c2ccccc2c1=O	28	nt	nt	nt	-0.2%	-1.0	2.2%

The last two compounds of the section before open the next one:
SMILES	TRPML1 blocker	Menin MLL FP FL	TRPV1 potentiator	Sfp inh	ClpP mod	TRPML1 ag	PINK1 modulator
CCCCN1C(=O)C(CC(=O)NCC2CCCCC2)CC(C(=O)N(C)C)=C1C (stereo not given)	36	nt	nt	nt	0.8%	-0.5	-0.3%
CCn1nc(C(=O)Nc2ccc3c(c2)OCCO3)c2ccccc2c1=O	28	nt	nt	nt	-0.2%	-1.0	2.2%
O=c1c(N2CCOCC2)nsnc1N1CCOCC1	0	-2.0	2	-4%	1.0%	0.2	0.1%
CC(=O)NCCC(=O)N(C)CC1CCN(CCc2cccc(C(F)(F)F)c2)CC1	20	1.7	2	18%	nt	-0.1	0.2%
O=C(NCc1ccco1)c1ccc(C(=O)NCc2ccco2)cc1	-6	nt	nt	nt	-2.4%	0.1	-1.8%
Cc1ccc(C)c(NC(=O)CN(C)C(C)C(=O)N2CCCC2)c1 (stereo not given)	30	nt	nt	nt	nt	0.4	1.1%
COC(=O)c1c(NC(=O)COC(=O)CNC(=O)c2ccco2)sc(C)c1C	-14	7.7	-2	16%	-5.2%	-0.5	-0.7%
O=C(COC(=O)c1ccc[nH]c1=O)NCCC1=CCCCC1	25	nt	nt	nt	nt	-0.6	0.0%
Cc1ccc2nc(-c3cccc(Cl)c3)c(Cc3ccccc3)n2c1	nt	nt	nt	nt	4.3%	-0.2	?
N/C(=N\O)c1cn(Cc2ccccc2Cl)c2ccccc12	12	6.1	9	1%	-1.6%	-1.1	-1.4%
COc1ccc(C(=O)Oc2c(Sc3ccc(C)cc3)c(C)nn2C(C)(C)C)cc1OC	-25	nt	nt	nt	-5.4%	0.3	3.8%
Cc1ccc(NS(=O)(=O)c2c(C)[nH]c(C)c2C(=O)N2CCCCC2)c(Cl)c1	6	nt	2	16%	-2.1%	0.5	-1.1%
CCCCNc1nnc(SCC(=O)c2c(N)n(C3CC3)c(=O)[nH]c2=O)s1	15	nt	nt	nt	0.1%	-0.5	1.8%
CCOC(=O)C1=C(COC(=O)C2CC(=O)N(c3ccc(C)cc3)C2)NC(=O)NC1C (stereo not given)	9	nt	4	nt	nt	0.2	0.8%
CC(=O)N1CCN(S(=O)(=O)c2cccc(C(=O)OCc3ccc(F)cc3)c2)CC1	7	nt	nt	nt	2.3%	-0.2	0.3%
CCC(c1nnnn1-c1c(C)cccc1C)N1CCN(c2ccccn2)CC1 (stereo not given)	nt	nt	nt	nt	-2.9%	-1.0	0.9%
Cc1ccc(S(=O)(=O)NC2=NCN(CCN3CCOCC3)CN2)cc1	-6	-1.6	9	9%	0.5%	-0.2	-1.0%
C=CCc1cc(C)ccc1OCCCC(C(=O)OCC)C(=O)OCC	3	3.4	-5	4%	1.8%	0.4	19%
CCn1c(-c2cc(OC)c(OC)c(OC)c2)n[nH]c1=S	27	1.4	3	2%	-17%	0.3	-0.2%
O=C(O)CSc1nnc(COc2cccc3cccnc23)n1-c1cccc(C(F)(F)F)c1	-2	-4.1	-1	20%	nt	0.3	1.0%
CCCC1C2CN(C(C)C)CC=C2C(C#N)=C(N)C1(C#N)C#N (stereo not given)	6	?	-5	-6%	28µM*	22	10µM*
CC1S/C(=N/N=C/c2ccco2)NC1=O (stereo not given)	-9	0.5	2	3%	0.2%	-0.2	-0.7%
CCOc1cccc(/C=N/NC(=O)c2cc(C3CC3)[nH]n2)c1O	2	1.0	-3	-1%	-1.9%	0.3	0.5%
O=S(=O)(NC1=NCCCCC1)c1ccc2ccccc2c1	12	0.4	4	5%	-1.3%	0.1	8.3%
COc1ccc(CNC(=O)CN(C(=O)CCC(=O)Nc2ccccn2)c2cccc(C)c2)cc1	-6	5.9	4	-9%	nt	-0.9	1.8%
Cc1nc2ccc(NC(=O)N(C)c3ccccc3)cc2s1	-10	-1.7	5	32%	nt	-0.3	0.2%
COc1ccc(/C=N/NC(=O)c2ccn[nH]2)cc1COc1ccc(F)cc1	2	1.9	12	8%	-7.4%	0.0	2.9%
COc1ccc(F)cc1COc1nc(C)nc2ccccc12	-14	5.1	1	13%	nt	0.1	0.1%
CCc1nc2ccc(C(=O)NCc3ccc4c(c3)OCO4)cn2c1N(C)C(=O)Cc1ccccc1	nt	nt	nt	nt	-3.2%	-1.0	3.5%
CCn1c(CNc2nc(-c3ccccc3)cs2)nnc1SCC(=O)NCc1ccccc1	-6	-0.2	-9	-6%	0.3%	-0.5	-0.5%
CN(C)S(=O)(=O)N1CCN(c2ccc([N+](=O)[O-])c(NC3CC3)c2)CC1	48	1.2	-10	-7%	nt	-0.4	-1.4%
CC1=C(C(=O)OCc2ccccc2)C(c2ccc(Cl)cc2)NC(=O)N1CCCC(=O)O (stereo not given)	-12	-6.6	-7	11%	1.3%	0.1	-0.4%
CN(C)c1ccc(/C=N/NC(=O)c2ccc3nc[nH]c3c2)cc1	18	0.0	nt	4%	nt	-0.4	-1.9%
Cc1nc(CNC(=O)c2cc(COc3ccc(F)cc3Cl)on2)cs1	-3	-1.8	2	-6%	nt	0.1	1.7%
COc1ccc(S(=O)(=O)NCC2CCCN(Cc3ccc(OC)cc3F)C2)cc1 (stereo not given)	24	nt	19	6%	nt	-0.1	-1.3%
CCC(C)NC(=S)Nc1ccc(C(=O)OC)cc1 (stereo not given)	-15	-3.0	-19	12%	nt	1.7	2.0%
CC(C)Cc1cc(C(=O)O)n[nH]1	36	3.8	2	2%	-3.0%	0.2	-1.3%
CC(=O)c1cccc(NC(=O)CCS(=O)(=O)c2ccc3c(c2)n(C)c(=O)c(=O)n3C)c1	7	nt	nt	nt	-4.9%	0.5	1.4%
CCOc1ccc(C(=S)NC2CCCCC2)cc1OCC	24	-8.0	3	14µM*	nt	1.0	3.5%
O=C(Cc1ccc(S(=O)(=O)N2CCOCC2)s1)Nc1ccc2c(c1)CCC2	-6	0.5	-8	7%	0.6%	-0.2	-0.4%
COc1ccc(F)cc1S(=O)(=O)NCC(=O)NCc1cc(=O)n(C)c(=O)n1C	-11	-2.0	-10	15%	-2.3%	0.3	-0.4%
COc1ccc(NC(=O)C2COc3ccccc3O2)cc1S(=O)(=O)N1CCOCC1 (stereo not given)	8	nt	11	nt	-0.1%	-0.2	2.8%
COc1ccc(CCNC(=O)CC(=O)N/N=C\c2ccc(OCC(N)=O)cc2)cc1OC	0	nt	nt	nt	0.7%	0.1	1.0%
Cc1ccc2nc(-c3ccc(NC(=O)COc4ccccc4C(C)(C)C)cc3)sc2c1	9	nt	nt	nt	4.2%	3.4	1.1%
CCOC(=O)CC1CCCCN1C(=O)c1cc(COc2cccc3cnccc23)on1 (stereo not given)	-1	0.9	6	11%	4.4%	0.8	0.7%
Cc1ccc(-n2nc(C)c(NC(=O)CCl)c2C)cc1C	3	3.2	-6	13%	1.0%	0.8	-1.1%
CCCNC(=O)C1(C)CCCN(Cc2ccc(-n3ccnc3)cc2)C1 (stereo not given)	nt	nt	nt	nt	0.8%	-0.3	-0.1%
O=C(Nc1ccccc1)N1CCN(c2ccccc2)CC1	15	nt	nt	nt	0.3%	0.9	1.7%
COc1ccccc1CC(=O)NNC(=O)c1cccs1	1	-1.6	27	8%	nt	0.0	-0.7%
CC(C)OC(=O)CSc1nnc(-c2ccc(O)cc2)n1Cc1ccccc1	8	0.5	8	-9%	0.6%	-0.6	-0.3%
CCC(C)NC(=O)c1ccccc1NC(=O)COc1ccc(OC)cc1 (stereo not given)	-10	0.5	?	15%	-4.1%	-0.2	2.6%
CCCN(CCC)C(=O)Cn1c(=O)n(CCCCCC(=O)Nc2ccccc2)c(=O)c2sccc21	-16&3	0.6	0	-3%	0.2%&-5.9%	1.1&-0.5	-0.1%&11%

New compounds follow.
SMILES	TRPML1 blocker	Menin MLL FP FL	TRPV1 potentiator	Sfp inh	ClpP mod	TRPML1 ag	PINK1 modulator
Cc1ccc(C(=O)N2CCC3(CC2)Oc2ccc(F)cc2C(=O)C32CC(c3cccnc3)=NO2)s1 (stereo not given)	5	-0.6	-7	-6%	-4.5%	-0.1	2.7%
CC(=O)c1cc(NC(=O)c2ccc(C)cc2)c(=O)oc1/C=C/N(C)C	-6	?	-9	10%	-4.5%	14	12%
COc1ccc(OC)c(C2NC(=O)NC(C)=C2C(=O)Nc2ccc(F)cc2)c1 (stereo not given)	25	nt	nt	nt	0.4%	-0.3	0.2%
C=CCOc1ccc(C2N3CC4(C)CN2CC(CCC)(C3)C4=O)cc1 (stereo not given)	58	0.3	12	5%	-0.8%	0.5	1.2%
O=C(NCCCn1ccnc1)c1ccccc1F	-3	-5.2	10	5%	0.4%	0.8	-0.7%
CC(=O)OCC(=O)[C@@]1(O)CCC2C3CC[C@H]4CC(O)CC[C@@]4(C)C3C(=O)C[C@]21C (stereo not given in full)	nt	-6.0	nt	6%	nt	nt	-0.3%
